MLL AF4-AF9 inh: inhibitors of AF4 peptide binding to AF9, primary screen, biochemical, AlphaScreen, biotin-AF4 peptide, FLAG-AF9, single point. Protein AF-9 (Homo sapiens), P42568. inhibition, % at 10 µM. hit rate 0.47% among 350,000. AID 651704, 2012;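 active = every replicate reaching a set inhibition limit, whatever the replicate mean, cut at about 25% in these data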;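 note: 0% = plate neutral control median and 100% = total signal loss; the record names both 10 and 1 µM as test concentration; the first replicate is given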
Target sequence (P42568 whole entry, looked up): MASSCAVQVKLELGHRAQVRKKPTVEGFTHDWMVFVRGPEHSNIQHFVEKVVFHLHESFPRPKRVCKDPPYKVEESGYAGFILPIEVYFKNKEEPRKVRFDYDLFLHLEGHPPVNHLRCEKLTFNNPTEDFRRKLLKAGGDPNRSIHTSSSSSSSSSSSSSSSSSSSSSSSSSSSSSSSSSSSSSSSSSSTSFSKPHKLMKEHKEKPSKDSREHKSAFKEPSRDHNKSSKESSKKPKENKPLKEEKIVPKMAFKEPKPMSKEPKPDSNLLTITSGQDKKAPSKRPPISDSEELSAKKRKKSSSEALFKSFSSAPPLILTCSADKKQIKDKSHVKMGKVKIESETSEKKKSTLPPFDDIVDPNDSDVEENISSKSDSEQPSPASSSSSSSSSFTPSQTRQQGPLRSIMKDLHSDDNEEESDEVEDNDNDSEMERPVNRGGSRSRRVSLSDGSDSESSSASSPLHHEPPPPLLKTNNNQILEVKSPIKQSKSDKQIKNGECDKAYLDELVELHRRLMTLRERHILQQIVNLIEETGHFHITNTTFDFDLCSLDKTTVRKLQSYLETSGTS
Numbers without * were called inactive; & = joins results of further samples.

MLL AF4-AF9 inh | compound
1.3 | C/C=C/c1ccc([C@@H]2[C@H](CO)N3C(=O)CN(S(=O)(=O)c4ccccc4)C[C@@H]23)cc1
-0.4 | Cc1ccc(S(=O)(=O)Nc2ccc3c(c2)C(=O)N([C@@H](C)CO)C[C@@H](C)[C@@H](CN(C)S(=O)(=O)c2ccccc2)OCCCC[C@@H](C)O3)cc1
2.3&4.6 | COc1ccc(NC(=O)N2[C@@H]3CNC[C@H]2C3c2ccc(-c3cccc(C(=O)N(C)C)c3)cc2)cc1 (some centres not stated)
0.5 | CO[C@@H]1CN(C)C(=O)c2ccc(NS(C)(=O)=O)cc2OC[C@@H](C)N(CCC(F)(F)F)C[C@H]1C
-11 | COCC(=O)N1CC2(CCN(C(=O)c3cccnc3)CC2)c2c([nH]c3cc(OC)ccc23)[C@H]1CO
0.4 | O=C(Cc1ccccn1)N1CC(=O)N2[C@H](CO)[C@H](c3ccc(C#CC4CCCC4)cc3)[C@H]2C1
2.3 | O=C(C1CCCCC1)N1CC(=O)N2[C@H](CO)[C@@H](c3ccc(-c4cccnc4)cc3)[C@H]2C1
5.4 | COc1ccc2c3c(n(C)c2c1)[C@H](CO)N(C(=O)Nc1ccc(F)cc1)CC31CN(Cc2cccc(F)c2)C1
-33 | C[C@@H]1CN([C@H](C)CO)C(=O)CCCn2cc(nn2)CO[C@H]1CN(C)Cc1ccc(O)cc1
1.2 | CCCC(=O)Nc1ccc2c(c1)OC[C@@H](C)N(Cc1ccccc1F)C[C@H](C)[C@@H](OC)CN(C)C2=O
1.9 | O=C(Nc1cccc(F)c1)N1CC(=O)N2[C@@H](CO)[C@H](c3ccc(-c4ccccc4)cc3)[C@@H]2C1
1.4 | CCNC(=O)C[C@H]1CC[C@H]2[C@H](COc3ccc(NC(C)=O)cc3C(=O)N2C)O1
-3.1 | CN(C)C(=O)c1ccc(-c2ccc([C@@H]3[C@H]4CN(C(=O)C5CC5)CC(=O)N4[C@H]3CO)cc2)cc1
0.5 | CCCC#Cc1ccc(CC[C@H]2O[C@H]3CC[C@H](CO)O[C@H]3C[C@H]2n2cc(C(C)(C)O)nn2)cc1
-1.7 | CCCC#Cc1ccc([C@H]2[C@@H](C#N)N(S(=O)(=O)c3cccc(F)c3)[C@H]2CO)cc1
-0.4 | C/C=C/c1ccc([C@H]2[C@@H](CO)N(C(C)=O)[C@H]2CNC(=O)NCCC)cc1
4.5 | O=C(c1ccc2c(c1)OCO2)N1CC(=O)N2[C@H](CO)[C@H](c3ccc(C#CC4CCCC4)cc3)[C@H]2C1
-1.1 | C[C@H](CO)N1C[C@H](C)[C@@H](CN(C)C(=O)Nc2ccccc2)OCCCC[C@H](C)Oc2ccc(NC(=O)c3ccncc3)cc2C1=O
-13 | Cc1noc(C)c1NC(=O)N(C)C[C@H]1OCCCC[C@H](C)Oc2ccc(NS(=O)(=O)c3ccc(Cl)cc3)cc2C(=O)N([C@@H](C)CO)C[C@@H]1C
-0.7 | O=C(C[C@H]1CC[C@@H]2[C@H](COC[C@@H](O)CN2CCc2ccccc2)O1)NCc1ccc(F)cc1
-1.6 | COCCNC(=O)C[C@H]1CC[C@H]2[C@@H](COc3ccc(NC(C)=O)cc3C(=O)N2C)O1
1.9 | O=C(C[C@H]1C[C@H]2c3cc(NC(=O)C4CCC4)ccc3O[C@H]2[C@H](CO)O1)NCC(F)(F)F
9.3 | O=C(NC[C@@H]1[C@@H](c2ccccc2)[C@@H](CO)N1Cc1ccccn1)NC1CCCC1
0.0 | COc1cccc(NC(=O)N2CC(=O)N3[C@H](CO)[C@@H](c4ccc(C5=CCCC5)cc4)[C@H]3C2)c1
-4.1 | COCC(=O)Nc1ccc2c(c1)OC[C@H](C)N(Cc1ccccn1)C[C@H](C)[C@H](OC)CN(C)C2=O
-4.7 | CN(C)C(=O)c1ccc(-c2ccccc2[C@H]2[C@@H](C#N)N(C(=O)C3CC3)[C@H]2CO)cc1
3.6 | CCC(=O)N1CC(=O)N2[C@H](CO)[C@@H](c3ccc(-c4ccccc4F)cc3)[C@H]2C1
5.2 | COc1ccccc1NC(=O)N1CC(=O)N2[C@H](C1)[C@@H](c1ccc(-c3ccc(F)cc3)cc1)[C@@H]2CO
-1.8 | CCC(=O)N1[C@@H](C#N)[C@H](c2ccccc2-c2ccccc2)[C@@H]1CO
36* | COc1cccc(-c2ccc3c(c2)[C@@H]2[C@@H](CCN2C(=O)C2CCCCC2)[C@H](CO)N3)c1
-17 | O=C(c1ccc(F)cc1)N1CC(=O)N2[C@@H](CO)[C@@H](c3ccc(C#CC4CCCCC4)cc3)[C@@H]2C1
-0.1 | Nc1[nH]c(C(=O)c2ccc(Br)cc2)c(-c2ccc(Br)cc2)c1C(=O)NCc1cccc2ccccc12
-6.4 | CCNC(=O)[C@H]1[C@H](CO)[C@H]2Cn3c(cccc3=O)[C@H]2N1CC1CCCCC1
-3.2 | C[C@@H]1CN([C@@H](C)CO)C(=O)Cc2cc(NS(C)(=O)=O)ccc2O[C@@H]1CN(C)CC1CC1
-1.3 | O=C(NC1CCCCC1)N1CC(=O)N2[C@H](C1)[C@H](c1ccc(-c3ccncc3)cc1)[C@@H]2CO
-4.3 | COCC#Cc1ccc([C@@H]2[C@H](CO)N3C(=O)CN(C(=O)Nc4ccc(F)cc4)C[C@@H]23)cc1
-1.2 | C[C@@H]1CCCCO[C@@H](CN(C)C(=O)Nc2ccccc2)[C@@H](C)CN([C@H](C)CO)C(=O)c2cc(NC(=O)CCCN(C)C)ccc2O1
-0.4 | CCCC#Cc1ccc([C@@H]2[C@@H](CO)N3C(=O)CN(C(=O)c4ccc(F)cc4)C[C@@H]23)cc1
0.8&-4.7 | N#Cc1cccc(-c2ccc(C3[C@@H]4CN(C(=O)Cc5ccccc5)C[C@H]3N4)cc2)c1 (some centres not stated)
-3.4 | C[C@@H]1CN([C@@H](C)CO)C(=O)c2cc(NC(=O)CCCN(C)C)ccc2O[C@@H]1CN(C)S(C)(=O)=O
-1.6 | COc1ccc(C#Cc2ccc([C@@H]3[C@@H](CO)N4C(=O)CN(C(=O)c5ccncc5)C[C@@H]34)cc2)cc1
1.1 | CC(=O)NC[C@@H]1[C@@H](c2ccc(C3=CCCC3)cc2)[C@@H](CO)N1C(=O)CN(C)C
0.0 | CN(C)CC#Cc1ccc([C@@H]2[C@H]3CN(C(=O)c4ccccc4)CC(=O)N3[C@H]2CO)cc1
5.1 | C[C@H]1CN([C@@H](C)CO)C(=O)Cc2cc(NC(=O)CCCN(C)C)ccc2O[C@H]1CN(C)Cc1ccc(-c2ccccc2)cc1
1.1 | c1ncc(-c2ccc(C3[C@@H]4CN(Cc5cocn5)C[C@H]3N4)cc2)cn1 (some centres not stated)
0.0 | CN(C)CC(=O)N1CC2(C1)[C@H](c1ccccc1)[C@@H](CO)N2C(=O)C1CCCC1
-4.3 | O=C(Nc1cccc(F)c1)N1CC(=O)N2[C@H](CO)[C@H](c3ccc(C#Cc4cccnc4)cc3)[C@H]2C1
-0.8 | CC=Cc1ccc2n(c1=O)C[C@@H]1[C@@H](CO)[C@H](C(=O)NCc3ccccc3)[C@H]2N1Cc1ccccc1OC (mixture of isomers)

Sorted by value in MLL AF4-AF9 inh (rising): seven from the list above
MLL AF4-AF9 inh | compound
-4.3 | O=C(Nc1cccc(F)c1)N1CC(=O)N2[C@H](CO)[C@H](c3ccc(C#Cc4cccnc4)cc3)[C@H]2C1
-1.2 | C[C@@H]1CCCCO[C@@H](CN(C)C(=O)Nc2ccccc2)[C@@H](C)CN([C@H](C)CO)C(=O)c2cc(NC(=O)CCCN(C)C)ccc2O1
-0.8 | CC=Cc1ccc2n(c1=O)C[C@@H]1[C@@H](CO)[C@H](C(=O)NCc3ccccc3)[C@H]2N1Cc1ccccc1OC (mixture of isomers)
-0.4 | CCCC#Cc1ccc([C@@H]2[C@@H](CO)N3C(=O)CN(C(=O)c4ccc(F)cc4)C[C@@H]23)cc1
0.0 | CN(C)CC#Cc1ccc([C@@H]2[C@H]3CN(C(=O)c4ccccc4)CC(=O)N3[C@H]2CO)cc1
1.1 | CC(=O)NC[C@@H]1[C@@H](c2ccc(C3=CCCC3)cc2)[C@@H](CO)N1C(=O)CN(C)C
5.1 | C[C@H]1CN([C@@H](C)CO)C(=O)Cc2cc(NC(=O)CCCN(C)C)ccc2O[C@H]1CN(C)Cc1ccc(-c2ccccc2)cc1

The list goes on.
MLL AF4-AF9 inh | compound
0.1 | CCCNC(=O)N1CC(=O)N2[C@@H](CO)[C@@H](c3ccc(C#CCC4CCCC4)cc3)[C@@H]2C1
14 | COc1ccc2c3c([nH]c2c1)[C@H](CO)N(S(=O)(=O)c1ccc(C)cc1)CC31CCN(Cc2nccs2)CC1
-2.3 | O=C(C[C@@H]1CC[C@H](NC(=O)c2ccncc2)[C@@H](CO)O1)Nc1ccc(-c2ccccc2)cc1
-0.2 | CCC(=O)N1[C@@H]2CN(C(=O)c3cccc(OC)c3)c3ccccc3[C@@H]2[C@@H]1CO
-5.4 | C[C@@H]1CCCCO[C@H](CN(C)C(=O)c2ccccc2)[C@@H](C)CN([C@H](C)CO)C(=O)c2cc(NS(C)(=O)=O)ccc2O1
-0.6 | CN(C)CC#Cc1ccc([C@H]2[C@@H](CO)N3C(=O)CN(C(=O)c4cccc(F)c4)C[C@H]23)cc1
0.8 | COc1ccc2c3c(n(C)c2c1)[C@H](CO)N(C(=O)NC1CCCC1)CC31CN(C(C)=O)C1
-1.4 | O=C(N[C@@H]1CC[C@@H](CCn2cc(C3CCCC3)nn2)O[C@@H]1CO)c1cccnc1
0.5 | O=C(c1cccnc1)N1C[C@H]2[C@@H](c3ccccc31)[C@@H](CO)N2C(=O)C1CCOCC1
0.5 | C/C=C/c1ccc(C2[C@H]3CNC[C@@H]2N3Cc2cccc(F)c2)cc1 (some centres not stated)
6.4&15 | O=C(Nc1cc(F)ccc1F)N1[C@@H]2CNC[C@H]1C2c1ccc(/C=C/c2ccccc2)cc1 (some centres not stated)
0.9 | CC(C)C#Cc1ccc([C@@H]2[C@@H](CO)N3C(=O)CN(C(=O)Cc4ccccc4)C[C@@H]23)cc1
-2.3 | O=C(NC1CCC1)[C@@H]1[C@@H](CO)[C@@H]2Cn3c(ccc(-c4ccccc4)c3=O)[C@@H]2N1CC1CC1
-24 | CCC(=O)N1[C@@H]2c3cccc(=O)n3C[C@@H]2[C@@H](CO)[C@@H]1C(=O)N[C@H](C)c1ccccc1
-2.8 | CO[C@H]1CN(C)C(=O)c2ccc(NC(=O)c3ccccc3F)cc2OC[C@H](C)NC[C@@H]1C
2.1 | O=C(c1ccccc1)N1CC(=O)N2[C@H](CO)[C@H](c3ccc(C#CCC4CCCC4)cc3)[C@@H]2C1
0.6 | Cc1ccc(S(=O)(=O)N(C)C[C@@H]2OCCCC[C@@H](C)Oc3ccc(NC(=O)Cc4ccccc4)cc3C(=O)N([C@@H](C)CO)C[C@@H]2C)cc1
9.2 | COc1cccc(NC(=O)N2CC(=O)N3[C@H](CO)[C@@H](c4ccc(C5=CCCCC5)cc4)[C@H]3C2)c1
-4.0 | COc1cccc(NC(=O)N[C@@H]2C=C[C@H](CC(=O)N3CCN(C)CC3)O[C@@H]2CO)c1
2.9 | C[C@H](CO)N1C[C@H](C)[C@@H](CN(C)Cc2ccc(Oc3ccccc3)cc2)OCc2ccccc2-c2c(n(C)c3ccccc23)C1=O
-1.4 | COCCNC(=O)[C@@H]1[C@@H](CO)[C@@H]2Cn3c(ccc(-c4ccccc4F)c3=O)[C@@H]2N1C(=O)C1CC1
-1.5 | C[C@@H](NC(=O)C[C@@H]1C[C@@H]2c3cc(NC(=O)CC4CC4)ccc3O[C@@H]2[C@@H](CO)O1)c1ccccc1
-3.2&-4.4 | O=S(=O)(c1cccc(F)c1)N1[C@@H]2CNC[C@H]1C2c1ccc(-c2cccc(F)c2)cc1 (some centres not stated)
3.7 | C[C@H]1CN([C@@H](C)CO)C(=O)Cc2cc(NC(=O)C3CC3)ccc2O[C@@H]1CN(C)Cc1ccc(-c2ccccc2)cc1

In another format: entries from further up.
COCCNC(=O)[C@@H]1[C@@H](CO)[C@@H]2Cn3c(ccc(-c4ccccc4F)c3=O)[C@@H]2N1C(=O)C1CC1
- MLL AF4-AF9 inh: -1.4

C[C@@H](NC(=O)C[C@@H]1C[C@@H]2c3cc(NC(=O)CC4CC4)ccc3O[C@@H]2[C@@H](CO)O1)c1ccccc1
- MLL AF4-AF9 inh: -1.5

O=S(=O)(c1cccc(F)c1)N1[C@@H]2CNC[C@H]1C2c1ccc(-c2cccc(F)c2)cc1 (some centres not stated)
- MLL AF4-AF9 inh: -3.2&-4.4

Next section:
MLL AF4-AF9 inh | compound
-4.6 | O=C(C1CCCC1)N1CC(=O)N2[C@@H](CO)[C@H](c3ccc(Br)cc3)[C@@H]2C1
-0.4 | C[C@@H]1CCCCO[C@H](CN(C)S(=O)(=O)c2ccccc2)[C@H](C)CN([C@@H](C)CO)C(=O)c2cc(NC(=O)c3ccncc3)ccc2O1
0.0 | CC(C)CC#Cc1ccc([C@@H]2[C@@H](CO)N3C(=O)CN(C(=O)CN4CCOCC4)C[C@H]23)cc1
9.0 | C[C@@H]1CN([C@H](C)CO)C(=O)c2cc(NS(=O)(=O)c3ccccc3)ccc2O[C@@H](C)CCCCO[C@@H]1CN(C)Cc1ccc2c(c1)OCO2
-0.9 | O=C(C[C@H]1CC[C@@H]2[C@H](COC[C@H](O)CN2CC2CCOCC2)O1)NCC1CCCCC1
5.0 | CN1c2ccc(-c3cccc(C#N)c3)cc2[C@@H]2[C@@H](CCN2C(=O)C2CC2)[C@H]1CO
2.7 | C[C@@H]1CCCCO[C@@H](CN(C)Cc2ccc3c(c2)OCO3)[C@H](C)CN([C@@H](C)CO)C(=O)c2cc(NS(=O)(=O)c3ccc(F)cc3)ccc2O1
1.8 | C[C@H]1CN([C@@H](C)CO)C(=O)c2c(c3ccccc3n2C)-c2ccccc2CO[C@@H]1CN(C)C(=O)Nc1ccccc1C(F)(F)F
-15 | COc1cccc(S(=O)(=O)N2[C@@H]3CNC[C@H]2C3c2ccc(-c3cccc(C)c3)cc2)c1 (some centres not stated)
-1.6 | C[C@@H]1CN([C@@H](C)CO)C(=O)c2cc(NS(=O)(=O)c3ccc(Cl)cc3)ccc2O[C@@H](C)CCCCO[C@H]1CN(C)Cc1ccccc1

These rows are one share of the data; rates above refer to the full screens.
